Compound activity deposited in PubChem by several laboratories.
AF4-AF9 inh = MLL-AF4/AF9 protein interaction inhibition; P42568; inhibition, % at 10 µM; 350,000 compounds, 0.47% hits; AID 651704; AlphaScreen, biotin-AF4 peptide binding to FLAG-AF9;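 active = every replicate reaching a set inhibition limit, whatever the replicate mean, cut at about 25% in these data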;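 note: 0% = plate neutral control median and 100% = total signal loss; the record names both 10 and 1 µM as test concentration; the first replicate is given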
FGF22 binding = binders of recombinant human FGF22 by thermal shift. Q9HCT0. SYPRO orange fluorescence; percent of sucrose octasulfate shift, DMSO zero. calls only at 9.99 µM. 340,000 compounds, 1.5% hits. AID 651658;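 active = melting point raised past a set limit in the mean and every replicate; three in four hits are not shown here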
Target sequence (Q9HCT0 whole entry, looked up): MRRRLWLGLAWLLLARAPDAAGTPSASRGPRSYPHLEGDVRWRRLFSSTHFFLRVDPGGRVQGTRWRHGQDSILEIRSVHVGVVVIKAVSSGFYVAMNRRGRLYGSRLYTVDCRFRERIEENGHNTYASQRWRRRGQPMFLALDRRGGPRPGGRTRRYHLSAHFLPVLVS
HNF4A DNA FP = change in binding of human HNF4 alpha to DNA | P41235 | AID 1224865 | 360,000 compounds, 0.3% hits | activity change, % at 10 µM | HNF4a-FITC DNA binding, fluorescence polarization, 1 h; in the data active = activity change above about 30%, passing the limit was not always enough;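 note: controls were the assay level and a saturating level of protein; the project sought stronger binding though the title names inhibitors; some compounds called inactive have numbers as strong as hits; positive values seem to mean higher polarization but the record does not say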
Target sequence (P41235 whole entry, looked up): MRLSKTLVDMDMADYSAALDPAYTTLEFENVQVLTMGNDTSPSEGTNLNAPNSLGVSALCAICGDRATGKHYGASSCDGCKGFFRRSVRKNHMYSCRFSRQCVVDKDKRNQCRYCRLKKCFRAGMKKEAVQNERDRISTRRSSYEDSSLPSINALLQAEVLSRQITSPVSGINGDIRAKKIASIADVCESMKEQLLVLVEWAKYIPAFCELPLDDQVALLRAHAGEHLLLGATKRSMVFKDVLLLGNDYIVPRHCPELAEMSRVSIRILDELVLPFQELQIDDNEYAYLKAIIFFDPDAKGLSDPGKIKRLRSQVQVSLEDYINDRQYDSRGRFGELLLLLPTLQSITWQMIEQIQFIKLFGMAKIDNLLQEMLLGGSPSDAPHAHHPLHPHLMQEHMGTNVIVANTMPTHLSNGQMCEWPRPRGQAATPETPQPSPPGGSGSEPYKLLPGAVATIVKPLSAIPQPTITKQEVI
* marks the source's active call; other numbers are inactive results; i = inactive; . = no result given; + = active, no number. Only part of the results is shown. The share of hits here may be higher or lower than overall.

The opening two records, ahead of the listing:
SMILES | AF4-AF9 inh | FGF22 binding | HNF4A DNA FP
CCCCN1CC(=O)N2[C@@H]3c4cc(Br)ccc4OC[C@@H]3[C@H](C(=O)OCC)[C@]2(C)C1=O | . | . | -17
O=C(N/N=C/c1coc2ccccc2c1=O)c1cc2ccccc2o1 | . | . | -1.0

This part in full, repeating the preview:
SMILES | AF4-AF9 inh | FGF22 binding | HNF4A DNA FP
CCCCN1CC(=O)N2[C@@H]3c4cc(Br)ccc4OC[C@@H]3[C@H](C(=O)OCC)[C@]2(C)C1=O | . | . | -17
O=C(N/N=C/c1coc2ccccc2c1=O)c1cc2ccccc2o1 | . | . | -1.0
O=C(CCN1C(=O)CC1c1ccco1)N1CCOCC1 (stereo unspecified) | . | . | -0.9
Cc1cc(C)cc(SCc2noc(C(=O)NC(C)C)c2C(=O)NC(C)C)c1 | . | . | 1.2
COc1cccc(/C=N/NC(=O)CCc2n[nH]c(=O)[nH]c2=O)c1O | . | . | 2.2
O=C(Nc1cccc(C(F)(F)F)c1)c1cccc2c(-c3cccnc3)coc12 | . | . | 0.1
CCCCn1c(OC(=S)N(CC)CC)cc(C)nc1=S | . | . | 3.2
COc1cc(NC(=O)COC(=O)CSc2ccc3ccccc3c2)c(C)cc1[N+](=O)[O-] | . | . | 0.9
Cc1cc(C)c(/C=N/n2c(C)cc(C)c(C#N)c2=O)c(C)c1 | . | . | 1.6
CCOC(=O)c1csc(-c2ccc(COC(=O)c3ccccc3)o2)n1 | . | . | 6.4
CC(C)c1ccc(NC(=O)c2ccc(-c3ccnn3C)c3ccoc23)cc1 | . | . | -0.9
CC1=CC(Cc2ccccc2)N(C)C(C(N)=O)C1 (stereo unspecified) | . | . | -1.2
CCCCN(C)c1c(C)nc2ccc(C(=O)NCCOc3ccc(OC)cc3)cn12 | . | . | 0.3
CC(/C=N\NC(=O)CN1CCN(S(=O)(=O)c2ccc(C)cc2)CC1)=C\c1ccccc1 | . | . | -3.5
CCOC(=O)N/N=C/c1cn(CCCOc2ccccc2)c2ccccc12 | . | . | -0.1
COC(=O)CCCCCCC(=O)Nc1ccc(NC(=O)CCCC[P+](c2ccccc2)(c2ccccc2)c2ccccc2)cc1 | 4.6 | i | .
O=C1O[C@@H](c2ccccc2)[C@@H](c2ccccc2)N2[C@@H](c3ccccc3OCCO)[C@]3(C(=O)Nc4ccccc43)[C@@H](C(=O)N3CCN(c4ncccn4)CC3)[C@H]12 | 0.7 | i | .
CO[C@@H]1CN(C)C(=O)c2cc(NC(=O)c3cc(C)on3)ccc2OC[C@@H](C)N(S(=O)(=O)c2cccc(F)c2)C[C@H]1C | -3.3 | i | .
O=C(NCCN1CCOCC1)[C@]1(CCS(=O)(=O)c2ccccc2)N=C(c2ccc(OCCCO)cc2)O[C@@H]1c1ccccc1 | 4.3 | i | .
O=C(CS)NCCCCCCNC(=O)[C@H]1C[C@H]2C(=O)NCC(=O)N2[C@H]1c1cccc(OCCO)c1 | -11 | i | .
CC(=O)n1cc([C@H]2C=C(C(=O)N3CCCCCCC3)O[C@@H](OCCCCO)C2)c2ccccc21 | 0.3 | i | .
O=C1CC[C@@H]2c3[nH]c4ccc(F)cc4c3CCN12 | 3.3 | i | .
OC[C@H]1[C@@H](c2ccc(C3=CCCC3)cc2)[C@H]2CN(CCC(F)(F)F)CCCCN21 | 8.5 | i | .
COc1ccc([C@H]2C=C(C(=O)N3CCCCC3)O[C@@H](OCc3ccc(CO)cc3)C2)cc1 | -3.1 | i | .
CC(C)(C)OC(=O)CC[C@]12N=C(c3ccc(OCCCO)cc3)O[C@H]1c1ccccc1CN(C(=O)c1ccccc1)C2=O | 3.1 | i | .

Look-ups from above.
Under AF4-AF9 inh, `OC[C@H]1[C@@H](c2ccc(C3=CCCC3)cc2)[C@H]2CN(CCC(F)(F)F)CCCCN21` is entered as 8.5
Under AF4-AF9 inh, `O=C1CC[C@@H]2c3[nH]c4ccc(F)cc4c3CCN12` is entered as 3.3
Under HNF4A DNA FP, `CCOC(=O)c1csc(-c2ccc(COC(=O)c3ccccc3)o2)n1` is entered as 6.4

The list goes on.
SMILES | AF4-AF9 inh | FGF22 binding | HNF4A DNA FP
C[C@@H]1CN([C@@H](C)CO)C(=O)c2cccc(N(C)C)c2O[C@@H]1CN(C)Cc1ccc(C(=O)Nc2ccccc2N)cc1 | 4.5 | i | .
C[C@]1(C(=O)NCc2ccccc2)c2ccccc2C(=O)N(Cc2ccc(OC(F)(F)F)cc2)[C@H]1c1ccc(CO)cc1 | 1.1 | i | .
C[C@@H]1CCCCO[C@@H](CN(C)S(=O)(=O)c2ccc(F)cc2)[C@@H](C)CN([C@H](C)CO)C(=O)c2cc(NC(=O)c3ccncc3)ccc2O1 | -2.8 | i | .
COCCCNC(=O)[C@]1(Cc2ccccc2N=[N+]=[N-])N=C(c2ccc(OCCCO)cc2)O[C@@H]1c1ccccc1 | -5.2 | i | .
COc1ccc(C(=O)Nc2ccc(CN3C(=O)[C@]4(O[C@H](CC(=O)N5Cc6ccccc6C[C@H]5CO)[C@@H]([Si](C)(C)c5ccc(OC)cc5)[C@@H]4C)c4ccccc43)cc2)cc1 | -0.6 | i | .
O=C(O)[C@@]1(CCS(=O)(=O)c2ccccc2)COC(c2ccc(OCCCO)cc2)=N1 | -1.9 | i | .
O=C(Nc1ccccc1O)C1=C[C@H](c2coc3ccccc3c2=O)C[C@H](OCCCCO)O1 | -3.2 | i | .
C[C@H](CO)N1C[C@H](C)[C@@H](CN(C)C)OCCCC[C@H](C)Oc2ccc(NC(=O)CCCN(C)C)cc2C1=O | -5.5 | i | .
COc1ccc([Si](C)(C)[C@H]2[C@H](CCn3cc(CCO)nn3)O[C@@]3(C(=O)N(Cc4ccc(N5C(=O)c6cccc7cccc5c67)cc4)c4ccccc43)[C@@H]2C)cc1 | 0.2 | i | .
O=C(C1CCC1)N1CCCCN2[C@@H](CO)[C@H](c3ccc(-c4cccc(F)c4)cc3)[C@@H]2C1 | 4.0 | i | .
COCCOC(=O)N1C(=O)[C@@]2(c3ccccc31)[C@H](c1ccc(OCCO)cc1)N1[C@H](c3ccccc3)[C@H](c3ccccc3)OC(=O)[C@H]1[C@@H]2C(=O)N1CCN(c2ncccn2)CC1 | -1.5 | i | .
O=C(c1cccc(F)c1)N1CCCCN2[C@H](CO)[C@H](c3ccc(-c4ccc(F)cc4)cc3)[C@@H]2C1 | -2.3 | i | .
Cn1cnc(S(=O)(=O)N2CCCCN3[C@@H](CO)[C@H](c4ccc(C5=CCCC5)cc4)[C@@H]3C2)c1 | -3.7 | i | .
CN(C)CC#Cc1ccc([C@H]2[C@H]3CN(C(=O)C4CC4)CCCCN3[C@H]2CO)cc1 | -3.7 | i | .
O=C1O[C@@H](c2ccccc2)[C@@H](c2ccccc2)N2[C@@H](c3ccc(O)cc3)[C@]3(C(=O)Nc4ccccc43)[C@@H](C(=O)N3CCCCCCC3)[C@H]12 | 0.2 | i | .
C[C@H]1CN([C@@H](C)CO)C(=O)c2ccccc2-c2ccccc2CO[C@H]1CN(C)S(=O)(=O)CC(F)(F)F | -4.2 | i | .
C[C@@H]1CCCCO[C@@H](CN(C)C(=O)Nc2ccccc2)[C@H](C)CN([C@H](C)CO)C(=O)c2cc(NC(=O)C3CCCCC3)ccc2O1 | 0.3 | i | .
Nc1ccc2ccc(NS(=O)(=O)N3CCCCC3)cc2c1 | -2.2 | i | .
CO[C@@H]1CN(C)C(=O)c2cc(NC(=O)NC(C)C)ccc2OC[C@@H](C)N(S(C)(=O)=O)C[C@H]1C | -4.2 | i | .
COC(=O)C1=CC(=O)N2CCN=C2S1 | 1.6 | i | .
OC[C@H]1[C@H](c2ccc(-c3cccnc3)cc2)[C@@H]2CN(CC3CCOCC3)CCCCN12 | -0.8 | i | .
C=C1CC(c2ccc(-c3ccccc3)cc2)OC1=O (stereo unspecified) | 0.2 | i | .
O=C1c2ccccc2C(=O)N1C1CCN(Cc2cccc(OCCO)c2)CC1 | -1.6 | i | .
O=[N+]([O-])c1cccc(/C=C/CO)c1 | -3.1 | i | .
C[C@H]1CN([C@@H](C)CO)C(=O)c2cc(NS(=O)(=O)c3ccccc3)ccc2O[C@@H]1CN(C)C | 0.2 | + | .

Next section:
SMILES | AF4-AF9 inh | FGF22 binding | HNF4A DNA FP
COCCOC(=O)N1C(=O)[C@@]2(c3cc(C#CC4(O)CCCCCC4)ccc31)[C@H](c1ccc(OCCO)cc1)N1[C@H](c3ccccc3)[C@H](c3ccccc3)OC(=O)[C@H]1[C@@H]2C(N)=O | -0.1 | i | .
COc1ccc(CCNC(=O)[C@@]2(Cc3ccccc3I)c3ccccc3C(=O)N(Cc3ccccc3OC)[C@H]2c2ccc(CO)cc2)cc1 | -0.2 | i | .
COC(=O)[C@]1(Cc2ccccc2)N=C(c2ccc(OCCCO)cc2)O[C@@H]1c1ccccc1CN=[N+]=[N-] | 12 | i | .
O=C1c2ccccc2NC(c2cc(Cl)cc(Cl)c2O)N1CCc1ccccn1 (stereo unspecified) | -2.7 | i | .
C[C@H]1C=C(C(=O)N2CCN(Cc3ccccc3)CC2)O[C@@H](OCc2ccc(CO)cc2)C1 | -0.9 | i | .
C[C@@H]1CCCCO[C@@H](CN(C)C(=O)NC2CCCCC2)[C@H](C)CN([C@@H](C)CO)C(=O)c2cc(NC(=O)Nc3ccccc3)ccc2O1 | -0.5 | i | .
O=C1O[C@H](c2ccccc2)[C@H](c2ccccc2)N2[C@H]1[C@@H](C(=O)O)[C@]1(C(=O)Nc3ccc(C#CCCO)cc31)[C@H]2c1ccc(O)cc1 | 0.0 | i | .
NCCCCCCNC(=O)[C@H]1C[C@H]2C(=O)N[C@@H](Cc3ccccc3)C(=O)N2[C@H]1c1cccc(OCCO)c1 | -3.0 | i | .
CN1CCN(C(=O)c2cc3c(c(-c4cccc(C#CCC5CCCC5)c4)n2)[C@@H](CCO)N(S(=O)C(C)(C)C)C3)CC1 (stereo partly specified) | 11 | i | .
O=[N+]([O-])c1ccccc1S(=O)(=O)N1CCN(Cc2cccc(OCCO)c2)CC1 | -1.0 | i | .
CCCC#Cc1cnc2c(c1)C(=O)N([C@H](C)CO)C[C@H](C)[C@H](CN(C)C(=O)CCN1CCCCC1)O2 | 1.9 | i | .
C[C@H]1CN([C@@H](C)CO)C(=O)c2cc(-c3ccccc3F)cnc2O[C@@H]1CN(C)Cc1cccc(F)c1 | 8.9 | i | .
O=C(C1CCC1)N1CCCCN2[C@H](C1)[C@H](c1ccc(-c3cccc(F)c3)cc1)[C@@H]2CO | -0.8 | i | .
O=C(C=Cc1ccc(O)c(O)c1)NCC(=O)NC(Cc1ccccc1)C(=O)O (stereo unspecified) | -4.9 | i | .
CC(C)NC(=O)[C@@]1(C)c2ccccc2C(=O)N(Cc2ccc(OC(F)(F)F)cc2)[C@H]1c1ccc(CO)cc1 | 1.4 | i | .
C=C[C@@H](COC(=O)c1ccc([N+](=O)[O-])cc1)N(Cc1ccc(OC)cc1)S(=O)(=O)c1ccc(Br)cc1 | 2.1 | i | .
C[C@H](CO)N1C[C@H](C)[C@@H](CN(C)S(C)(=O)=O)Oc2ccc(NC(=O)Cc3cn(C)c4ccccc34)cc2C1=O | 0.3 | i | .
CN(C)CC#Cc1cccc(-c2nc(C(=O)N3CCN(C)CC3)cc3c2[C@H](CCO)N(S(=O)C(C)(C)C)C3)c1 (stereo partly specified) | 0.3 | i | .
CC(C)(C)OC(=O)CC[C@]12N=C(c3ccc(OCCCO)cc3)O[C@H]1c1ccccc1CN(Cc1ccccc1)C2=O | 1.3 | i | .
O=C(C1=C[C@@H](c2ccc(Br)cc2)C[C@@H](OCc2ccc(CO)cc2)O1)N1CCCC1 | -0.3 | i | .
CC1=C(C(=O)N2CCC=CC2=O)Cc2ccccc21 | -5.1 | i | .
COc1ccccc1C#Cc1ccc([C@H]2[C@@H](CO)N3CCCCN(C(=O)C4CC4)C[C@@H]23)cc1 | -2.8 | i | .
O=C(NCC(F)(F)F)[C@@H]1c2ccccc2C(=O)N(CC23CC4CC(CC(C4)C2)C3)[C@H]1c1ccc(CO)cc1 | 2.0 | i | .
CCO[C@@H]1OC(C(=O)N2CCCC2)=C[C@H](c2ccc3c(c2)OCO3)[C@H]1CCCO | -3.7 | i | .
C=CCN1C(=O)[C@@]2(O[C@@H](CCO)[C@H]([Si](C)(C)c3ccc(OC)cc3)[C@H]2C)c2cc(N3CCC3=O)ccc21 | 7.1 | i | .

Going on with the list:
SMILES | AF4-AF9 inh | FGF22 binding | HNF4A DNA FP
COC(=O)C[C@H]1C=C[C@H](NC(=O)c2ccccc2)[C@@H](CO)O1 | -0.3 | i | .
C[C@H](CO)N1C[C@H](C)[C@H](CN(C)S(=O)(=O)c2cccs2)Oc2ccc(NC(=O)Nc3ccc(F)cc3)cc2C1=O | 3.7 | i | .
CN(C)C(=O)c1cccc(-c2ccc([C@@H]3[C@@H](CO)N4CCCCN(C(=O)C5CCCC5)C[C@H]34)cc2)c1 | -0.5 | i | .
C[C@@H]1CCCCO[C@H](CN(C)C(=O)c2ccccc2)[C@H](C)CN([C@@H](C)CO)C(=O)c2cc(NC(=O)Nc3ccc(F)cc3)ccc2O1 | -9.3 | + | .
C=CC[C@]1(C(=O)NCc2ccccc2)N=C(c2ccc(OCCCO)cc2)O[C@H]1c1ccccc1 | -0.7 | i | .
O=C(C1=C[C@H](C2CC2)C[C@H](OCc2ccc(CO)cc2)O1)N1CCCCCCC1 | -3.2 | i | .
C[C@@H]1CN([C@H](C)CO)C(=O)Cc2cc(NS(C)(=O)=O)ccc2O[C@@H]1CN(C)C(=O)Nc1ccc(C(F)(F)F)cc1 | -3.6 | i | .
O=C1C=CCCN1C(=O)/C=C/c1ccccc1 | -2.8 | i | .
